GIV-Gai inh: GIV-Galpha-i interaction inhibition; P08753; Galpha-i3/FITC-GIV peptide fluorescence polarization, 90 min; active compounds read low; scaled: aluminum fluoride 0%, vehicle 100%; percent of control (FP), % (concentration not given with the values); hit rate 0.42% among 210,000; AID 1224905;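 active = replicate mean at 85% of control or lower, very high polarization wells dropped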;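 also: wells of about 15 µL received 100 nL stock; the first replicate is given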
Target sequence (P08753 whole entry, looked up): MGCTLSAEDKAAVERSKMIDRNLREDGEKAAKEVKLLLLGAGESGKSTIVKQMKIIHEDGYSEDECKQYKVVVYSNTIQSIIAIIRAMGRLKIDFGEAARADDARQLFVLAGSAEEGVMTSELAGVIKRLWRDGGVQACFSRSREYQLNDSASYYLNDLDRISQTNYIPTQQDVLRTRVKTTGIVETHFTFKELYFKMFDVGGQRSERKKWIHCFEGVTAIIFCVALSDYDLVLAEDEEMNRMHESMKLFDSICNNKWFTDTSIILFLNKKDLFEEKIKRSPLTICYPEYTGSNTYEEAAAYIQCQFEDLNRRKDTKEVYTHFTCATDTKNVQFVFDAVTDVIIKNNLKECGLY
HCMV UL50-53 inh: inhibitors of HCMV UL50-UL53 nuclear egress complex interaction; inhibition, % (concentration not given with the values); hit rate 0.15% among 190,000; HTRF UL50-UL53 interaction, normalized percent inhibition;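 active = both replicates at 50% or more, plus weaker picks with an unusually low signal ratio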;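 also: stock transfer was 100 nL into about 20 µL; 0% = negative control wells and 100% = wells with untagged competitor protein; inactives centre near -12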
Sa growth 42C: S. aureus growth inhibition; hit rate 0.53% among 170,000; S. aureus RN4220 growth, OD600, 20 h, 42 °C; active compounds read low; relative growth, % (concentration not given with the values);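 active = growth at 42 °C up to 50% and 20 or more points under that at 30 °C, or under 10% at both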;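 also: 300 nL library stock went into each well; scaled to the means of positive and negative controls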
Sa growth 42C second temp: recorded beside Sa growth 42C, whose call it bears; relative growth, %; measured here: growth at 30 °C;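 optical density after 20 h as mean of two plates; 100% = untreated growth and lower means inhibition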
* = called active by the depositor; / = no result given; & = joins results of further samples.

SMILES | GIV-Gai inh | HCMV UL50-53 inh | Sa growth 42C | Sa growth 42C second temp
CCOC(=O)c1c(CS(=O)Cc2ccc(Cl)cc2)oc2c(F)c(F)c(F)c(F)c12 (stereo not given) | 101 | -25 | 96 | 84
CN(CC1CCCO1)C1CCN(C(=S)Nc2cc(F)cc(F)c2)CC1 (stereo not given) | 104 | -19 | 107 | 92
COc1ccc(CNC(=O)CSc2nc3ccccc3nc2Cc2ccccc2OC)cc1 | 97 | / | 82 | 90
CC1(c2ccc(Cl)cc2)CC(C)(C)N(C(=O)c2ccccc2)c2ccccc21 (stereo not given) | 102 | -8 | 80 | 70
CC1CCC(C(C)C)C(NC(=O)c2cccc3ccccc23)C1 (stereo not given) | 101 | -28 | 84 | 85
CCOC(=O)c1cccc(NC(=O)CCS(=O)(=O)c2ccc3c(c2)CC(=O)N3C)c1 | 107&105 | -7 | 89 | 97
COc1ccc(-n2ccnc(NCCc3ccccc3)c2=O)cc1OC | 99 | / | 79 | 86
CCN(CC)CCCNC(=O)C1CCN(C(=O)c2oc3cc4sc(N(C)C)nc4cc3c2C)CC1 | 101 | -26 | / | /
COc1ccc(OCC(O)CNC(=O)C2CCC2)cc1 (stereo not given) | 106 | -24 | 94 | 85
Clc1ccc(-c2noc(C3CCc4ccccc4O3)n2)cc1 (stereo not given) | 101 | -17 | 89 | 84
CCOC(=O)c1cc(-c2ccccc2)n(CC(=O)N2CCCCCC2)c1C | 100 | / | 75 | 80
Cc1cc(C)cc(NC(=O)CSc2oc(-c3ccco3)nc2S(=O)(=O)c2ccccc2)c1 | 98 | -3 | 98 | 94

Ordered by value in GIV-Gai inh (high to low): three of the compounds above
structure | GIV-Gai inh
CCOC(=O)c1c(CS(=O)Cc2ccc(Cl)cc2)oc2c(F)c(F)c(F)c(F)c12 (stereo not given) | 101
CCOC(=O)c1cc(-c2ccccc2)n(CC(=O)N2CCCCCC2)c1C | 100
Cc1cc(C)cc(NC(=O)CSc2oc(-c3ccco3)nc2S(=O)(=O)c2ccccc2)c1 | 98

Carrying on.
SMILES | GIV-Gai inh | HCMV UL50-53 inh | Sa growth 42C | Sa growth 42C second temp
O=c1[nH]c2ccc3nsnc3c2[nH]c1=O | 109 | -119 | 75 | 67
CC1(C)C=C(C(=O)N2CCCCC2)C(C)(C)N1 | 104 | -23 | 88 | 81
CCOC(=O)COc1ccc(-c2nnn(CC(=O)Nc3ccccc3)n2)cc1 | 110 | -10 | 86 | 86
Cc1oc2ncn(CC(C)C)c(=O)c2c1C(=O)NCCCN1CCC(C)CC1 | 111 | / | 111 | 102
O=C(NCCc1ccccc1)c1c2c(nc3ccccc13)C(=O)N(C1CCCCC1)C2 | 101 | / | 100 | 88
CCOc1ccc(/C=C/c2nc(C#N)c(N3CCN(c4ccc(OC)cc4)CC3)o2)cc1 | 99 | -36 | 90 | 89
O=C(O)C(Cc1ccc(F)cc1)c1ccccc1 (stereo not given) | / | -9 | 116 | 98
Cc1ccc(Cl)cc1N/C=C/C(=O)C(C)(C)C | 106 | -11 | 129 | 92
Cc1ccc2c(nc3s/c(=C/c4cc([N+](=O)[O-])c(N5CCOCC5)cc4N4CCOCC4)c(=O)n32)c1C | 113 | -24 | / | /
COc1cc(CN(CC2CCCO2)C(=O)c2ccco2)cc(OC)c1OC (stereo not given) | 103 | -3 | 114 | 91
C=Cc1ccc(Cn2nc3n(CCC(C)C)c(=O)c4ccccc4n3c2=O)cc1 | 103 | -26 | / | /
O=C(COCc1cc(-c2cccs2)on1)Nc1cccc(O)c1 | 100 | / | 84 | 87
COc1ccc(-c2ccc(/C=c3\sc4nc5cc(C)c(C)cc5n4c3=O)o2)c([N+](=O)[O-])c1 | 101 | -23 | / | /
CCn1nc(C)c(CCN(C)C(=O)Nc2cc(Cl)c(OC)cc2OC)c1C | 104&101 | -10 | 110 | 90
CCC(=O)N1CCc2cc(S(=O)(=O)NC(CC(C)C)C(=O)NC3CCCC3)ccc21 (stereo not given) | 98 | / | 115 | 90
Cc1ccc(NC(=S)Nc2ccc(N3CCOCC3)cc2)cc1C | / | -9 | 88 | 86
Cc1ccc(NC(=O)COc2ncnc3c2cnn3-c2ccccc2)cc1 | / | -18 | 97 | 89
Fc1ccc(C=Nc2ccc3ccccc3c2)cc1 | / | -18 | 99 | 68
O=C(CSc1nc(-c2ccccc2)[nH]c1-c1ccccc1)Nc1ccccc1 | 104 | / | 95 | 66
COc1ccc2[nH]cc(CCNC(=O)c3ccccc3NC(=O)C3=C(C)OCCS3)c2c1 | 100 | -5 | / | /
CCOc1ccc(N(CC)C(=O)c2cc3c(s2)-c2ccccc2OC3)cc1 | 101 | -12 | 107 | 94
Cc1ccc(CNC(=O)c2c[nH]c3ccc(S(=O)(=O)N4CCC(C)CC4)cc3c2=O)cc1 | 102 | 5 | 82 | 87
CCCCn1c(NC(=O)C2CCCCC2)nc2ccccc21 | 95 | -11 | / | /
O=C(O)c1cccc(N=Nc2sc3ccccc3c2O)c1 | 129 | -169 | 81 | 55
O=c1[nH]c(=S)[nH]c2[nH]c(=S)[nH]c12 | / | -3 | 80 | 75
Cc1noc(C)c1COC(=O)c1ccc(S(=O)(=O)C(F)F)cc1 | / | -19 | 107 | 91
Cc1ccc(S(=O)(=O)C(CC(=O)c2ccc(F)cc2)c2ccco2)cc1 (stereo not given) | 104 | -8 | 94 | 90
N=C1/C(=C/c2cccs2)C(=O)N=C2SC=C(c3ccccc3)N12 | 118 | / | 105 | 118
O=C(CN1C(=O)COc2ccc(S(=O)(=O)N3CCCCCC3)cc21)NCc1ccc(F)cc1 | 105 | / | 110 | 84
Cc1cccc(C(=O)NCC(=O)OCc2cc(=O)n3nc(C4CC4)sc3n2)c1 | 117 | / | 89 | 84
CC(C)NC(=O)CCn1c(=O)oc2ccccc21 | 102 | / | 85 | 86
COc1ccc(-c2nc(SCC(=O)Nc3ccc4c(c3)OCCO4)c(-c3ccc(C)cc3)[nH]2)cc1OC | 106 | -18 | 95 | 71
CC(C)NC(=O)C1CCN(C(=O)N2CCOc3ccc(Cl)cc32)CC1 | 104 | -5 | 102 | 86
CCN(CC)CCNC(=O)c1ccc(-n2c(-c3ccccc3)cc3c2CCCC3)cc1 | 105 | 1 | 117 | 102
CCc1nnc2c3c4c(sc3nc(C)n12)CCC4 | / | -42 | 85 | 96
CC(C)OCCCNC(=O)c1ccc2c(c1)N(Cc1c(F)cccc1Cl)C(=O)c1ccccc1S2 | 106 | -19 | 101 | 80
COc1cc(CCC(=O)NCC(c2ccc(F)cc2)N2CCOCC2)cc(OC)c1OC (stereo not given) | / | -6 | 88 | 95
O=C(C1CCCCC1)N1CCN(S(=O)(=O)c2ccc(Cl)cc2Cl)CC1 | 100 | 8 | 107 | 104
Cc1nn(-c2cc(N3CCOCC3)ncn2)c(C)c1CCC(=O)N1CCN(c2ccccn2)CC1 | 100 | -14 | / | /
Cc1ccc(OCC(=O)Nc2ccc(-c3nn4c(C)nnc4s3)cc2)cc1 | 98 | / | 91 | 80
CC(=O)Nc1ccc(NC(=O)c2ccc(-c3ccc(Cl)cc3Cl)o2)cc1 | 101 | -22 | 93 | 88
O=C1C(=Cc2ccc(-c3ccc(F)cc3F)o2)C(=O)c2ccccc21 | 110 | 12 | 95 | 89
Cc1ccc(CNC(=O)CCCCCn2c(=O)c3sccc3n(CC(=O)Nc3ccc(C)c(F)c3)c2=O)cc1 | 107 | 16 | 93 | 100
CSCC[C@H](NC(=O)N1CC(C)CC(C)C1)C(=O)O (stereo not given in full) | 102 | 5 | / | /
COC(=O)c1ccccc1NS(=O)(=O)c1cc2c3c(c1)C(C)C(=O)N3CCC2 (stereo not given) | 101 | -10 | 100 | 84
O=C(NC1CCCC1)c1ccc(-n2cnc3cccnc32)cc1 | 102 | -22 | 98 | 85
CCOc1ccc(CCNS(=O)(=O)c2c(C)cc(C)cc2C)cc1OCC | / | 3 | 98 | 80
Cc1ccc(N2CCC(C(=O)NCc3cccc(F)c3)C2=O)cc1 (stereo not given) | 104 | -22 | / | /

Random excerpt: six records from the list
SMILES | GIV-Gai inh | HCMV UL50-53 inh | Sa growth 42C | Sa growth 42C second temp
CC(=O)Nc1ccc(NC(=O)c2ccc(-c3ccc(Cl)cc3Cl)o2)cc1 | 101 | -22 | 93 | 88
CSCC[C@H](NC(=O)N1CC(C)CC(C)C1)C(=O)O (stereo not given in full) | 102 | 5 | / | /
COC(=O)c1ccccc1NS(=O)(=O)c1cc2c3c(c1)C(C)C(=O)N3CCC2 (stereo not given) | 101 | -10 | 100 | 84
COc1cc(CCC(=O)NCC(c2ccc(F)cc2)N2CCOCC2)cc(OC)c1OC (stereo not given) | / | -6 | 88 | 95
Cc1nn(-c2cc(N3CCOCC3)ncn2)c(C)c1CCC(=O)N1CCN(c2ccccn2)CC1 | 100 | -14 | / | /
CCOc1ccc(CCNS(=O)(=O)c2c(C)cc(C)cc2C)cc1OCC | / | 3 | 98 | 80

Other results.
SMILES | GIV-Gai inh | HCMV UL50-53 inh | Sa growth 42C | Sa growth 42C second temp
Nc1ccc(C(=O)Nc2nc3ccc(NC(=O)c4ccccc4)cc3s2)cc1 | 109 | -7 | / | /
CCN(CC)c1cc(C)c2cc(NC(=O)c3cccc(OC)c3)ccc2n1 | 101 | -13 | 101 | 94
CCn1c(CC(=O)Nc2ccccc2C)nnc1SCC(=O)N1CCN(c2ccccc2)CC1 | 102 | 0 | 101 | 100
CS(=O)(=O)N(Cc1ccccc1)Cc1ccccc1N1CCC(C(=O)O)CC1 | 104 | 46 | 138 | 87
Oc1ccc2ccccc2c1CN1CCN(c2ccccn2)CC1 | / | -2 | 109 | 95
CCC(C)N=Cc1c(NCc2ccco2)nc2c(C)cccn2c1=O (stereo not given) | / | -48 | 118 | 80
O=C1CCCN2N=C(SCC(=O)c3ccc(Cl)cc3)SC2=N1 | 111 | / | 87 | 64
Cc1nc(C)c(-c2nc(-c3ccc4c(c3)[nH]c(=O)c(=O)n4C(C)C)no2)s1 | 102 | -18 | / | /
Cc1cccc(-n2ncc(C(=O)N3CCN(c4ccc(Cl)cc4)CC3)c2C2CCN(C(=O)OC(C)(C)C)CC2)c1 | 107 | / | 128 | 95
O=C1COc2cc(S(=O)(=O)N3CCCC3C(=O)NCCN3CCCC3)c(Cl)cc2N1 (stereo not given) | 103 | -16 | / | /
Cc1ccc(S(=O)(=O)c2cc(O)ccc2O)cc1C | 109 | 0 | 86 | 70
CSCCNC(=O)Nc1c(-c2c(Cl)cccc2Cl)noc1C | 103 | -34 | 88 | 83
O=C(C1c2ccccc2Oc2ccccc21)N1CCC(c2ccccc2)C1 (stereo not given) | 108 | / | 108 | 99
CC(N)c1ccc(S(N)(=O)=O)cc1 (stereo not given) | / | -4 | 67 | 88
COC(=O)CNC(=O)N1CCN(S(=O)(=O)c2ccc3c(ccn3C)c2)CC1 | 96 | / | 87 | 90
CCN(CC)c1ccc2cc(-c3nc4sc5c(c4c(=O)[nH]3)CCC(C(C)(C)C)C5)c(=O)oc2c1 (stereo not given) | -66* | -5 | 102 | 84
Cn1c(=O)cc(OCC(=O)NCCCN2CCCCCC2)c2ccccc21 | 99 | -7 | 97 | 95
CCOc1ccc2nc(NC(=O)CN3C(=O)C(C)(C)c4ccccc43)sc2c1 | 103 | 1 | / | /
Cc1ccc(Cl)cc1N1CCN(C(=O)c2ccc(CS(=O)(=O)c3ccccc3C)o2)CC1 | 107 | -14 | 99 | 73
COc1ccc(N2C(=N)/C(=C3/Nc4ccccc4S3)CC2=O)cc1OC | 107 | -61 | / | /
CN(c1ccccc1)S(=O)(=O)c1cccc(C(=O)N2CCCCCC2)c1 | / | -8 | 99 | 99
CCCc1c(C(=O)Nc2ccc(F)cc2)cnn1-c1ccccc1 | 105 | -10 | 89 | 95
COc1ccc2c(C)c(CCC(=O)NCc3cccc(Cl)c3)c(=O)oc2c1 | 96 | -36 | 117 | 86
O=c1cc(O)nc(-c2ccccc2)[nH]1 | 103 | 10&-10 | 103&87 | 97&87
CCc1cccc(C)c1NC(=O)COC(=O)C1CC(=O)N(c2ccc(Br)cc2)C1 (stereo not given) | 100 | -28 | 91 | 84
Cc1cccc(C(=O)Nc2ccc3c(c2)CCC(=O)N3)c1 | 105 | -22 | / | /
CCN(CC)C(=O)c1sc2c(c1C)c(=O)n(-c1ccc(OC)cc1OC)c(=O)n2CC(=O)Nc1ccccc1 | 100 | / | 96 | 85
CCCCCOCC1Cc2c(C)nn(C(N)=S)c2O1 (stereo not given) | 105 | -11 | 51 | 18
COc1ccc(C=Nc2ccc(Br)cc2)cc1OC | / | -6 | 103 | 90
FC(F)(F)c1cc(-c2cccs2)nc2c1cnn2C1CCCCC1 | / | 16 | 99 | 103
O=C(CCCCCn1c(=O)c2sccc2n(Cc2ccccc2Cl)c1=O)NCc1ccc2c(c1)OCO2 | 109 | -11 | 100 | 92
Cc1cc(C(=O)CN2C(=O)C3CC=CCC3C2=O)c(C)n1-c1ccccc1 (stereo not given) | / | -10 | 114 | 101
O=C1CSc2cc(S(=O)(=O)N3CCC(Cc4ccccc4)CC3)ccc2N1 | 102 | / | 98 | 83
CC(C)(C)S(=O)(=O)Cc1nc(-c2ccc3c(c2)OCCCO3)cs1 | 102 | -4 | 111 | 86
CCCn1nc(C(=O)N2CCc3ccccc32)c2ccccc2c1=O | / | -17 | 46* | 81*
Nc1cc(Cl)ccn1 | 101 | -31 | 74 | 82
CC(C)n1c(O)c(N=NC(=O)C2CC2)c2ccccc21 | / | -32 | 94 | 87

Source: PubChem BioAssay (ICCB-Longwood Screening Facility, Harvard Medical School)
